Anaer choline gr = blocks anaerobic gram-negative growth on choline | Gram-negative bacterium anaerobic choline minimal medium, absorbance growth; active compounds read low; many inactives read as strong as hits in the columns shown | calls only | actives 0.2% (n = 55,000) | AID 1963822;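 active = growth z-score on choline under -2 at 7 or 20 h with little or no fall on glycerol, limits in tiers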;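 also: stock transfer was 300 nL into about 50 µL; the organism is E. coli; final concentration not given here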
Anaer choline gr early = further read-out of Anaer choline gr, marked with its call; z-score; measured here: choline growth z-score, timepoint 1;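 score of optical density at 7 h as mean of two plates; lower means less growth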
The depositor's hits bear a star; & = joins results of further samples. A portion of the library; the hit share may differ from the screen's.

For O=C(c1cc(O)c(O)c([N+](=O)[O-])c1)c1ccccc1F the results were Anaer choline gr inactive and Anaer choline gr early -0.22.
For COC(=O)c1ccc2c(=O)n(-c3ccc4c(c3)OCO4)c(N3CCCCC3)nc2c1 the results were Anaer choline gr inactive and Anaer choline gr early -1.66.
COc1ccc([C@@H]2CC(=O)c3c(O)cc(O[C@@H]4O[C@H](CO[C@@H]5O[C@@H](C)[C@H](O)[C@@H](O)[C@H]5O)[C@@H](O)[C@H](O)[C@H]4O)cc3O2)cc1O was read as Anaer choline gr inactive and Anaer choline gr early 0.16.
`Cc1ccc(CNC(=O)C2CCN(S(=O)(=O)c3ccc4c(c3)C(C)(C)C(=O)N4C)CC2)cc1` gave Anaer choline gr inactive and Anaer choline gr early 0.3.
O=S1(=O)C[C@H](NC2CCCCCC2)[C@@H](S(=O)(=O)c2cccs2)C1 was read as Anaer choline gr inactive and Anaer choline gr early -1.02.
For O=C(c1nnc(-c2ccc(S(=O)(=O)N3CCOCC3)cc2)o1)N1CCCC1 the results were Anaer choline gr inactive and Anaer choline gr early -0.41.
For Cc1noc(-c2ccc(-c3noc(-c4ccccc4)n3)cc2)n1 the results were Anaer choline gr inactive and Anaer choline gr early 0.33.
CC(C)N=c1cc2n(-c3ccc(Cl)cc3)c3ccccc3nc-2cc1Nc1ccc(Cl)cc1 was read as Anaer choline gr inactive and Anaer choline gr early 0.33&0.37.
Cc1nccn1CC1CCc2c(c3ccccc3n2C)C1=O (stereo unspecified) was read as Anaer choline gr inactive and Anaer choline gr early 0.84&0.14&-0.64.
Screening COCCNC(=O)N1CCN(c2cc(-c3ccc(F)cc3)ncn2)CC1 returned Anaer choline gr inactive and Anaer choline gr early -0.26.
`COc1ccc(C2CC(=O)C3=C(C2)Nc2ccccc2NC3c2ccccc2C)cc1` (stereo unspecified) gave Anaer choline gr inactive and Anaer choline gr early 0.17.
Screening Cc1nn(C)c2nc(OC(C)C(=O)N3CCCc4ccccc43)cc(C(F)(F)F)c12 (stereo unspecified) returned Anaer choline gr inactive and Anaer choline gr early 1.47.
`CNC(=O)c1ccc(Cn2c(=O)c3cc(OC)c(OC)cc3n(CC(=O)NC3CCCCC3)c2=O)cc1` gave Anaer choline gr inactive and Anaer choline gr early 0.35.
`O=C(Nc1ccc(Cl)cc1)C1CCN(S(=O)(=O)c2ccc(-c3noc(C4CC4)n3)cc2)CC1` gave Anaer choline gr inactive and Anaer choline gr early 0.76.
For CN(CC1(C)CCOCC1)S(=O)(=O)c1cccc(F)c1 the results were Anaer choline gr inactive and Anaer choline gr early 0.03.
For Cc1c(N2CCC(C(=O)N3CCN(C)CC3)CC2)c(=O)n(C)c(=O)n1-c1ccccc1 the results were Anaer choline gr inactive and Anaer choline gr early 1.62.
Screening COc1cc(NC(=O)Cn2c(C)cc(C)c(S(=O)(=O)c3ccc(C)cc3)c2=O)cc(OC)c1 returned Anaer choline gr inactive and Anaer choline gr early 0.63.
`Cc1ccc(-c2ccc(N3CCCC(C(=O)NC4CCCC4)C3)nn2)cc1` (stereo unspecified) gave Anaer choline gr inactive and Anaer choline gr early 1.95.
CC(C)NC(=O)CCn1c(=O)c2cc(Cl)ccc2n2c(=O)[nH]nc12 was read as Anaer choline gr inactive and Anaer choline gr early 1.3.
Cc1oc(C)c2c(=O)cc(-c3ccc4c(c3)OCO4)cc(OC(=O)c3ccc(Cl)cc3)c12 was read as Anaer choline gr inactive and Anaer choline gr early 0.87.
Screening Oc1ccc(Cl)cc1C1CC(c2ccc(Cl)cc2)=NC2(CCNCC2)N1 (stereo unspecified) returned Anaer choline gr inactive and Anaer choline gr early -0.82.

Quoted at random: 2 compounds from above
Screening COc1cc(NC(=O)Cn2c(C)cc(C)c(S(=O)(=O)c3ccc(C)cc3)c2=O)cc(OC)c1 returned Anaer choline gr inactive and Anaer choline gr early 0.63.
Cc1oc(C)c2c(=O)cc(-c3ccc4c(c3)OCO4)cc(OC(=O)c3ccc(Cl)cc3)c12 was read as Anaer choline gr inactive and Anaer choline gr early 0.87.

A stretch of the results above:
For Cc1noc(-c2ccc(-c3noc(-c4ccccc4)n3)cc2)n1 the results were Anaer choline gr inactive and Anaer choline gr early 0.33.
CC(C)N=c1cc2n(-c3ccc(Cl)cc3)c3ccccc3nc-2cc1Nc1ccc(Cl)cc1 was read as Anaer choline gr inactive and Anaer choline gr early 0.33&0.37.
Cc1nccn1CC1CCc2c(c3ccccc3n2C)C1=O (stereo unspecified) was read as Anaer choline gr inactive and Anaer choline gr early 0.84&0.14&-0.64.
Screening COCCNC(=O)N1CCN(c2cc(-c3ccc(F)cc3)ncn2)CC1 returned Anaer choline gr inactive and Anaer choline gr early -0.26.
`COc1ccc(C2CC(=O)C3=C(C2)Nc2ccccc2NC3c2ccccc2C)cc1` (stereo unspecified) gave Anaer choline gr inactive and Anaer choline gr early 0.17.
Screening Cc1nn(C)c2nc(OC(C)C(=O)N3CCCc4ccccc43)cc(C(F)(F)F)c12 (stereo unspecified) returned Anaer choline gr inactive and Anaer choline gr early 1.47.
`CNC(=O)c1ccc(Cn2c(=O)c3cc(OC)c(OC)cc3n(CC(=O)NC3CCCCC3)c2=O)cc1` gave Anaer choline gr inactive and Anaer choline gr early 0.35.
`O=C(Nc1ccc(Cl)cc1)C1CCN(S(=O)(=O)c2ccc(-c3noc(C4CC4)n3)cc2)CC1` gave Anaer choline gr inactive and Anaer choline gr early 0.76.
For CN(CC1(C)CCOCC1)S(=O)(=O)c1cccc(F)c1 the results were Anaer choline gr inactive and Anaer choline gr early 0.03.

Screening results as filed in PubChem.
